Compound activity as filed in PubChem BioAssay.
A488 autofl: qHTS Assay for Spectroscopic Profiling in A488 Spectral Region. compound autofluorescence, A488 spectral region, dye equivalency; hits give high values. max dye equivalency, M. actives 0.1% (n = 59,000); active = above 10 nM dye equivalent; inconclusive = 1 to 10 nM; inactive = 1 nM or less; about half of its hits are not listed in these tables;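 further: highest value over a series up to 38 µM; compound alone in buffer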
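Compounds pin-transferred into 100 mM Tris buffer, pH 8.0, incubated 15 min at room temperature, then imaged with 480 nm excitation/540 nm emission filters. Fluorescence converted to Alexa 488 dye-equivalent concentration via an on-plate six-point A488 standard curve.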
A647 fluor: qHTS Assay for Spectroscopic Profiling in A647 Spectral Region | 59,000 tested, under 10 active | max dye-equivalent concentration, M | Compound fluorescence, A647 channel (570/671 nm), Tris buffer; active means above 1 µM dye equivalent; inconclusive means 0.1 to 1 µM; inactive means 0.1 µM or less;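 further: values scaled relative to a standard on each plate; highest value over a series up to 38 µM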
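Each compound's intrinsic fluorescence at 570 nm excitation and 671 nm emission is measured across its concentration series in 100 mM Tris, pH 8.0, after 15 min at room temperature, and reported relative to an A647 curve.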
TSHR ag: qHTS Assay for Agonists of the Thyroid Stimulating Hormone Receptor; Thyrotropin receptor (Homo sapiens), P16473; HEK293-CNG-TSHR cells (CNG channel as cAMP sensor), membrane potential dye, cAMP; Potency, µM (series often up to 57.1 µM), for the others: at the highest dose activation, hits mostly activators; actives 0.48% (n = 73,000); AID 926, 2007; active = well fitted activation curve of enough size with the parental cells flat; inconclusive = any curve in the parental cells; inactive = parental cells flat and receptor cells flat or falling; further: potency means the concentration at half of the fitted maximal effect; % of control where 0% means no effect; weak receptor curves with flat parental cells got no call and are not listed
Target sequence (P16473 whole entry, looked up): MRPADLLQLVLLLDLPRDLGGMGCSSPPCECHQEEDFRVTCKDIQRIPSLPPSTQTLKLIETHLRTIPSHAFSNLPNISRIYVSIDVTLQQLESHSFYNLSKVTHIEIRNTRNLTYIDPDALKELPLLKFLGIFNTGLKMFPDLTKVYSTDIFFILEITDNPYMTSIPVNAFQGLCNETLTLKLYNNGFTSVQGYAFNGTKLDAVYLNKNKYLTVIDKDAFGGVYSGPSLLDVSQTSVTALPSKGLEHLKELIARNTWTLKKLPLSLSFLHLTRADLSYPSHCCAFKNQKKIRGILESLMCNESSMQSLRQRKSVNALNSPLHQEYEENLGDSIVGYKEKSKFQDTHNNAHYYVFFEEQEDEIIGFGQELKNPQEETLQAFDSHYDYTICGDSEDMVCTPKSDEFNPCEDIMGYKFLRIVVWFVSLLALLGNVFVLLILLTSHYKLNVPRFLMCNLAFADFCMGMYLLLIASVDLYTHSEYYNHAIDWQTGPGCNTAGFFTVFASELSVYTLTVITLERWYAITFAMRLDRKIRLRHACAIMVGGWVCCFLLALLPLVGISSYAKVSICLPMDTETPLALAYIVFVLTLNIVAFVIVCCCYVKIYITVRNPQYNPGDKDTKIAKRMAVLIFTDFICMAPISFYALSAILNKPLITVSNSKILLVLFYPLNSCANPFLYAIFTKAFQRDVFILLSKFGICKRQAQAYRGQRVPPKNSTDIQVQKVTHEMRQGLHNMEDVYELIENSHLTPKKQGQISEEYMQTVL
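cAMP rise detected as CNG-channel membrane depolarization by fluorescent dye (emission 590 nm), 30 min after compound, following 60 min dye loading containing 100 uM RO 20-1724 at room temperature. Cells: TSHR/CNG HEK 293, with parental CNG HEK 293 as control.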
AID923: qHTS Assay for Allosteric/Competitive Inhibitors of Caspase-1: Spectroscopic Profiling in AFC Spectral Region. compound fluorescence, AFC spectral region (405/520 nm); almost no hit is shown here. Potency, µM (top dose mostly 57.5 µM), inactives show at the top dose fluorescence increase, most hits filed as activators. actives 1.1% (n = 75,000); active means well fitted activation curve with a large enough effect; inconclusive means small, poorly fitted or top-dose-only effect;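 further: potency means the concentration at half of the fitted maximal effect; 0% is about no effect; scaled to a free AFC standard on each plate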
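Titrations up to 57 uM read every 20 sec for 3 min (405/520 nm) with 50 nM caspase 1 and 5 uM Ac-WEHD-AFC, pH 7.5 HEPES buffer. Fluorescence-vs-time intercept gave baseline, scaled against on-plate AFC standard.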
Resorufin autofl: qHTS Assay for Spectroscopic Profiling in Resorufin Spectral Region; max dye-equivalent concentration, M; Compound fluorescence, resorufin region 547/598 nm, buffer; hits give high values; AID 588, 2007; actives 0.04% (n = 59,000); active = above 10 nM dye equivalent; inconclusive = 1 to 10 nM; inactive = 1 nM or less; a few of its hits are not listed in these tables; further: highest value over a series up to 38 µM
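Compounds in 100 mM Tris buffer, pH 8.0, incubated 15 min at room temperature, then read with 547 nm excitation and 598 nm emission filters. Fluorescence was converted to dye-equivalent concentration using an on-plate six-point resorufin standard curve.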
An asterisk follows results filed as active; i = inactive; ? = inconclusive; . = not tested or not shown; & = joins results of further samples; [ ] = dose if it differs, or a comment. The list is partial (hit frequency here may not be typical).

Second line of a record: A488 autofl, A647 fluor, TSHR ag, AID923, Resorufin autofl
1. CC(C)n1ncc(C(N)=O)c1N
  i, 1e-09, -2.7%[11.4 µM], -0.3%, i
2. CCc1nnc(NC(=O)CSc2nnc(-c3ccco3)n2C)s1
  i, 4.14e-08, 2.2%, -3.2%, i
3. O=C(O)c1ccc(NC(=O)C2CCCCC2)cc1
  i, 1e-09, ., 0.1%, i
4. CCOC(=O)N1CCN(C(c2ccc(C(C)C)cc2)c2sc3nc(C)nn3c2O)CC1 (configuration not stated)
  ., ., 2.4%, -2.2%, .
5. CCOc1ccccc1-n1c(SCC(N)=O)nnc1-c1cccnc1
  i, 5e-09, 0.7%, -0.6%, i
6. Cc1nc2ccc(S(=O)(=O)NCC(=O)NCCN3CCCCC3C)cc2s1 (configuration not stated)
  i, 1.2e-09, ., 1.8%, i
7. O=C(C1CC(c2ccc(F)cc2)=NO1)N1CCc2ccccc2C1 (configuration not stated)
  ., ., 7.5%, 0.3%, .
8. Cc1ccc(-n2nnnc2SCc2nnc(-c3ccccc3Br)o2)c(C)c1
  i, 4.04e-08, ?, 1.1%, i
9. CCOc1ccc(C(=O)Nc2ccncc2)cc1
  ., ., 9.1%, 0.0%, .
10. Fc1ccc(Nc2nc(-c3ccoc3)nc3ccccc23)cc1
  i, 9.4e-09, -4.0%, 2.8%, i
11. CC(=O)c1cc2c(cc1NC(=O)CN1CCN(c3ccc(F)cc3)CC1)OCO2
  i, 6.4e-09, ?, -1.5%, i
12. CC(=O)NCCC(Cc1ccccc1)c1ccco1 (configuration not stated)
  i, 1.9e-09, 13.7%, -0.9%, i
13. O=c1[nH]c(=O)n([C@H]2C[C@H](O)[C@@H](CO)O2)cc1F
  i, 1.98e-08, ., 0.2%, i
14. Cc1[nH]c2ccc(Br)cc2c(=O)c1CN1CCCCC1
  i, 6.7e-09, 1.0%, -1.2%, i
15. COc1cc(C(=O)NCc2ccc(-c3nc4ccccc4o3)cc2)cc(OC)c1OC
  i, 7.1e-08, 27.1%, -1.4%, i
16. O=C(N/N=C\c1ccc([N+](=O)[O-])o1)c1ccc(O)cc1
  i, 1.6e-09, -8.1%[25.6 µM], -2.3%[25.7 µM], i
17. CCOC(=O)c1c(C(C#N)C#N)cc(C)nc1C
  i, 1e-09, ., ., i
18. CCn1cc(Br)c(C(=O)N(C)Cc2ccccc2)n1
  i, 2.84e-08, 10.8%, 3.2%, i
19. O=C(Nc1nccs1)c1ccc(COc2ccc(Cl)cc2)o1
  i, 1e-09, ?, -0.3%, i
20. Cc1ccc(C2CCN(C(=O)Nc3ccccc3)C2)cc1 (configuration not stated)
  i, 1.63e-08, ?, -3.3%, i
21. COC(=O)c1cc(Br)c(=O)n(CCN(C(C)C)C(C)C)c1
  i, 1e-09, 15.0%, -0.3%, i
22. O=C(COC(=O)CCc1nc2ccccc2s1)Nc1ccc(S(=O)(=O)N2CCOCC2)cc1
  i, 1.54e-08, -1.9%, -2.1%, i
23. CC(=O)Nc1ccc2oc(-c3ccccc3Br)nc2c1
  i, 1e-09, 9.6%, 0.3%, i
24. CC1CN(C(=O)CN2C(=O)c3ccccc3S2(=O)=O)CC(C)O1 (configuration not stated)
  i, 4.53e-08, 0.9%, 0.4%, i
25. CCCCNC(=O)N1CCOCCOCCN(C(=O)NCCCC)CCOCCOCC1
  i, 2.7e-09, ., ., i
26. CC1(C)Cc2c(sc3c2c(=N)n(Cc2ccco2)c(=O)n3CC(=O)Nc2ccccc2)CO1
  i, 3e-08, 17.5%, 3.5%, i
27. Cc1nn(-c2nc3ccccc3s2)c(N)c1-c1ccc(Cl)cc1
  i, 1.79e-08, -2.9%, 1.7%, i
28. Cc1nn(Cc2ccc(C(=O)Nc3ccc(C(=O)OC(C)C)cc3)o2)c(C)c1Cl
  i, 1e-09, 6.9%, 1.6%, i
29. COC(=O)c1ccc(NC(=O)CN2CCCC2)cc1
  ., ., 1.2%, -3.2%, .
30. COc1ccc(N/C(N)=N/c2nc(CSc3ccc(C)cc3)cc(=O)[nH]2)cc1
  i, 1.8e-09, 4.1%, 3.8%, i
31. Clc1ccc(Cn2nnc(-c3ccc(CN4CCOCC4)cc3)n2)cc1
  i, 1e-09, ?, 0.3%, i
32. O=C(CSc1ncnc2sc3c(c12)CCCCC3)NCc1ccco1
  i, 1e-09, ?, 0.7%, i
33. O=C(CNC(=O)c1ccco1)Nc1cc(Cl)ccc1N1CCOCC1
  i, 1.07e-08, -6.2%, 4.2%, i
34. O=C(CSc1ncnc2c1cnn2-c1ccccc1)Nc1ccccc1
  i, 1.08e-08, ?, -1.9%, i
35. Cc1ccccc1S(=O)(=O)Cc1ccc(C(=O)N2CC(C)CC(C)C2)o1 (configuration not stated)
  ., ., 9.0%, 0.8%, .
36. CC(C)NC(=O)N(O)C1N(Cc2ccc3c(c2)OCO3)C(=S)SC1(C)C (configuration not stated)
  i, 4.1e-09, 22.5%, -0.8%, i
37. CCOC(=O)c1ccc(CNC(=O)c2cc3cccc(OC)c3oc2=O)o1
  i, 7.2e-09, 7.0%, -1.1%, i
38. CS(=O)(=O)N1CCCC(C(=O)NCc2ccco2)C1 (configuration not stated)
  i, 1e-09, -19.2%, 1.7%, i
39. O=C(CC1SC2=NCCN2C1=O)Nc1ccccc1 (configuration not stated)
  i, 1e-09, ., ., i
40. CCc1ccc(C(=O)NC2CCCCC2)s1
  ., ., ?, -2.0%, .
41. COc1ccc(Br)cc1S(=O)(=O)N(CC(=O)N1CCOCC1)c1ccccc1
  ., ., 6.5%, 0.2%, .
42. Cc1noc(C)c1S(=O)(=O)N(CC(=O)N1CCc2ccccc21)c1ccc(C(C)C)cc1
  ., ., 6.5%, -1.2%, .
43. COc1cccc(-n2nnnc2SCC(=O)c2ccc(NC(C)=O)cc2)c1
  i, 1e-09, 7.8%, -0.3%, i
44. CC(C)CNC(=O)c1cccc(NC(=O)c2ccc(NC(=O)c3ccco3)cc2)c1
  i, 1e-09, 5.4%, 0.3%, i
45. CC(=O)Nc1ccc(Cl)c(C(N)=O)c1
  i, 1e-09, -1.2%, -0.1%, i
46. COc1ncc2nc(-c3cn(C)c4ccccc34)c(=O)n(CCc3ccccc3)c2n1
  i, 1e-09, 5.7%, ?, i
47. N#CCc1ccc(NC(=O)Nc2cccc(Cl)c2)cc1
  i, 1e-09, -29.7%, -1.6%, i
48. COCC(=O)Nc1sc2c(c1C(=O)OC)CCCC2
  i, 9.9e-09, 13.3%, -1.0%, i
49. C/C(CC(O)c1ccc2ccccc2n1)=N/O (configuration not stated)
  ., ., -1.0%[11.4 µM], -0.3%, .
50. CN1CCN(C2=Nc3ccccc3Oc3ccc(Cl)cc32)CC1
  i, 6.5e-09&1e-09&5.4e-08, -18.9%[25.6 µM], 0.8%, i

Continued; it opens with the four that closed the last part.
Second line of a record: A488 autofl, A647 fluor, TSHR ag, AID923, Resorufin autofl
47. N#CCc1ccc(NC(=O)Nc2cccc(Cl)c2)cc1
  i, 1e-09, -29.7%, -1.6%, i
48. COCC(=O)Nc1sc2c(c1C(=O)OC)CCCC2
  i, 9.9e-09, 13.3%, -1.0%, i
49. C/C(CC(O)c1ccc2ccccc2n1)=N/O (configuration not stated)
  ., ., -1.0%[11.4 µM], -0.3%, .
50. CN1CCN(C2=Nc3ccccc3Oc3ccc(Cl)cc32)CC1
  i, 6.5e-09&1e-09&5.4e-08, -18.9%[25.6 µM], 0.8%, i
51. CCCCn1c(CNC(=O)CC)nc2ccccc21
  ., ., 10.0%, -3.1%, .
52. c1csc(CNc2ncnc3ccc(-c4ccoc4)cc23)c1
  i, 7.6e-09, 10.9%, 0.0%, i
53. O=C(CCSc1ccccc1)N1CCOCC1
  i, 1.5e-09, 4.5%, 0.7%, i
54. CCOc1ccccc1N(CC(=O)OC)S(C)(=O)=O
  i, 3.8e-09, -3.6%, 0.4%, i
55. COc1ccc(CC(NC(C)=O)C(=O)N2CCN(C(=O)Nc3ccc(Cl)cc3)CC2)cc1OC (configuration not stated)
  i, 2.4e-09, -2.0%, 2.7%, i
56. COc1ccc(CN(CC(=O)NCC2CCCO2)C(=O)CNS(=O)(=O)c2ccc(C)cc2)cc1 (configuration not stated)
  i, 1.65e-08, 4.3%, 0.1%, i
57. O=C(CN1C(=O)CSc2ccccc21)NCCC1=CCCCC1
  i, 1.99e-08, 12.9%, -1.5%, i
58. N#Cc1cccc(NC(=O)N2CCCC3(CCN(C(=O)c4cccc(F)c4)CC3)C2)c1
  i, 2.98e-08, 17.0%, -2.2%, i
59. O/N=C1\CC/C(=N\O)c2nn(-c3ccccc3Cl)nc21
  i, 1e-09, 0.2%, 1.7%, i
60. c1ccc(-c2cc3c(nn2)CCc2nonc2-3)cc1
  i, 2.67e-08, ?, 0.4%, i
61. CCc1ccc(Nc2ncc3c(n2)CC(c2ccco2)CC3=O)cc1 (configuration not stated)
  i, 1.1e-09, 23.3%, 3.6%, i
62. CCOC(=O)N1CCN(c2ncnc3c2oc2nc(CC(C)C)c4c(c23)CCC4)CC1
  i, 1.6e-09, 7.1%, 1.3%, i
63. COc1ccc(N2CCN(C(=O)c3sc4nc(-c5ccc(F)cc5)cn4c3C)CC2)cc1
  ., ., 0.8%, -2.1%, .
64. CC1CCN(c2nc3c(c(=O)n(C)c(=O)n3C)n2CCSc2nc3ccccc3s2)CC1
  i, 1.15e-08, ?, 1.3%, i
65. Cn1c(/C(C#N)=C/C2CC=CCC2)nc2ccccc21 (configuration not stated)
  i, 5.8e-09, 2.7%, 0.8%, i
66. CCOc1ccc(N2CC(O)Cn3c2nc2c3c(=O)n(CCCc3ccccc3)c(=O)n2C)cc1 (configuration not stated)
  i, 1.61e-08, -26.3%, 1.8%, i
67. Cc1nc2c(C(=O)O)cnn2c(C)c1Cc1ccccc1F
  i, 2.38e-08, 1.8%, -0.6%, i
68. CCOC(=O)N1CCN(C(=O)C2CC(=O)N(Cc3ccc(OC)cc3)C2)CC1 (configuration not stated)
  i, 3.95e-08, -2.5%[11.4 µM], -0.7%, i
69. O=S(=O)(Nc1ccc2c(c1)OCCO2)c1cccc2cccnc12
  i, 6.3e-09, 15.6%, 0.2%, i
70. Cc1cc(-c2ccccc2)c(C#N)c(SCC(N)=O)n1
  i, 1e-09, 0.3%, 1.2%, i
71. O=C(CSc1nnc(-c2cccnc2)n1C1CCCCC1)NC1CCCC1
  i, 1e-09, -3.4%, 0.2%, i
72. COCCn1nnnc1C(c1cc2cc(C)ccc2[nH]c1=O)N1CCN(C2CCCCC2)CC1 (configuration not stated)
  i, 2.89e-08, 6.3%, 2.9%, i
73. CCC(C)n1c(C)nc2c(c1=O)c1nc3ccccc3nc1n2-c1ccc2c(c1)OCCO2 (configuration not stated)
  i, 1.48e-08, ., -1.5%, i
74. Cc1cccc(CSc2nnc(Cn3c(=O)sc4ccccc43)n2C)c1
  ., ., 29.3%, 0.4%, .
75. CC(C)=NOCc1ccc(-c2cn([C@@H]3COC[C@@H]3O)nn2)cc1
  ., ., -5.9%[11.4 µM], -2.2%[11.5 µM], .
76. COc1ccccc1NS(=O)(=O)c1ccc2oc(SC3CCOC3=O)nc2c1 (configuration not stated)
  i, 1e-09, 0.6%, 0.8%, i
77. Cc1cc(N2CCCc3ccccc32)n2ncnc2n1
  ., ., 16.2%, -2.4%, .
